# Sa growth inh – blocks Staphylococcus aureus growth; 170,000 tested, 0.53% active; AID 720641; S. aureus RN4220 growth, OD600, 20 h, 42 °C; stronger effect = lower value; relative growth, % (concentration not given with the values);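 active = growth at 42 °C up to 50% and 20 or more points under that at 30 °C, or under 10% at both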;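 also: 300 nL library stock went into each well; scaled to the means of positive and negative controls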
# GIV Gai3 FP – blocks GIV peptide binding to rat Galpha-i3; P08753; Galpha-i3/FITC-GIV peptide fluorescence polarization, 90 min; stronger effect = lower value; scaled: aluminum fluoride 0%, vehicle 100%; percent of control (FP), % (no concentration beside the values); 210,000 tested, 0.42% active; AID 1224905;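 active = replicate mean at 85% of control or lower, very high polarization wells dropped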;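 also: wells of about 15 µL received 100 nL stock; the first replicate is given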
# Target sequence (P08753 whole entry, looked up): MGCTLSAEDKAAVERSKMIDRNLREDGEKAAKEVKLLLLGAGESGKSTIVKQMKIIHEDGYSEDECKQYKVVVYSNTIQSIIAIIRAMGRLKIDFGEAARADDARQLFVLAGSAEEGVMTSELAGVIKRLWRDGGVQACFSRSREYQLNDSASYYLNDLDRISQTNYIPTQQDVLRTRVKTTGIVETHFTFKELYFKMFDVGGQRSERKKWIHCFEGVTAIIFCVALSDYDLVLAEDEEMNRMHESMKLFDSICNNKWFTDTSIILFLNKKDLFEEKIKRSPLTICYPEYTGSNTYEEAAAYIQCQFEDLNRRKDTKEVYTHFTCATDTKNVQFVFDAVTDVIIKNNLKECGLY
# HCMV UL50-53 inh – disrupts HCMV UL50-UL53 complex binding. HTRF UL50-UL53 interaction, normalized percent inhibition. inhibition, % (no concentration beside the values). 190,000 tested, 0.15% active. AID 1918969;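 active = both replicates at 50% or more, plus weaker picks with an unusually low signal ratio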;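 also: stock transfer was 100 nL into about 20 µL; 0% = negative control wells and 100% = wells with untagged competitor protein; inactives centre near -12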
# Sa growth inh second temp – further read-out of Sa growth inh, marked with its call; relative growth, %; measured here: growth at 30 °C;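 optical density after 20 h as mean of two plates; 100% = untreated growth and lower means inhibition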
# An asterisk follows results filed as active; nt = not tested or not shown; & = joins results of further samples; ! = not active in a repeat.
SMILES	Sa growth inh	Sa growth inh second temp	GIV Gai3 FP	HCMV UL50-53 inh
CCOc1ccc(CNc2ccc(N3CCOCC3)cc2)cc1OC	103	78	102	nt
CCCC(C)C(=O)Nc1nnc(C(C)C)s1 (stereo not given)	88	85	nt	-10
Cc1ccc(-c2noc(-c3ccc(NCc4ccc5c(c4)OCO5)nn3)n2)cc1	nt	nt	103	-10
Cc1cc(C)cc(Nc2nc(N)c(C(=O)C(C)C)s2)c1	nt	nt	106	2
O=C1CCS(=O)(=O)N1c1ccc(S(=O)(=O)N2CCc3ccccc32)cc1	nt	nt	116	-34
CCOc1ccccc1CNCCSc1nnnn1C	114	88	107	3
Cc1cc(=O)n2nc(N3CCC(C(=O)Nc4ccc(C(C)C)cc4)CC3)sc2n1	92	88	101	-23
Cn1c2ccccc2c2cc(C(=O)N/N=C/c3ccc(-c4ccc(S(N)(=O)=O)cc4)o3)sc21	64	83	nt	-2
Cc1nc(NC(=O)c2snnc2C)sc1C	nt	nt	104	0
CCc1c(C)c2ccc(O)c(CN3CCN(c4cc(Cl)ccc4C)CC3)c2oc1=O	111	85	105	-23
CCCCN(C)C(=O)c1cc2cc3ccc(C)cc3nc2s1	106	87	98	-15
CCCNC(=O)c1ccc(-n2c(=S)[nH]c3ccccc3c2=O)cc1	99	87	108	nt
CCC(Oc1ccc2c(c1)OCO2)C(=O)O (stereo not given)	89	104	105	nt
O=C1c2ccccc2C(=O)C1(CO)c1ccccc1	94	77	105	nt
COc1cccc(C(c2sc3nc(-c4ccco4)nn3c2O)N2CCC(C)CC2)c1 (stereo not given)	134	86	100	nt
CCOC(=O)/C=C1\SCC(=O)N1CCOC(=O)c1cc(Cl)c(N)cc1OC	82	78	nt	-7
O=C(Nc1ccccc1OC(F)F)C1(c2ccccc2)CC1	113	95	nt	-13
COc1cc(Cl)c(C)cc1NC(=S)N(Cc1cccnc1)Cc1ccco1	113	38	108	0
COc1ccccc1-c1c(C)nn2c(NCCc3ccc(C)cc3)cc(C)nc12	nt	nt	102	-2
COc1ccc(CC(=O)Nc2ccc3nc(Nc4cccc(Cl)c4)cc(C)c3c2)cc1OC	130	98	106	nt
Clc1cccc(-n2ncc3c(Nc4ccc5c(c4)OCCO5)ncnc32)c1	131	87	105	nt
N#Cc1c(N)nc(SCC(=O)c2ccc(O)c(O)c2)c(C#N)c1-c1ccc(O)cc1	nt	nt	108	-13
CC(=O)N[C@H](C(=O)O)C(C)(C)SN=O	nt	nt	96	-28
CC(C)c1ccc(-c2c(C#N)c(N)nc3c2CCC3)cc1	103	100	111	1
COc1ccc(NC(=O)Cn2nnnc2-c2ccccc2F)c(C)c1	78	87	98	-10
CCc1nc2cccnc2n1-c1ccc(CC(=O)Nc2cccc(C)c2C)cc1	85	98	112	nt
Cc1ccc(Cl)cc1N1CCN(C(=O)c2cc3ccc4cccnc4c3[nH]2)CC1	111	105	101	nt
CCN(CC)N=Nc1ccc(C(=O)O)cc1	114	92	104	-23
CSc1nn(CC(=O)Nc2cc(C)ccc2C)c(N)c1S(=O)(=O)c1ccccc1	109	88	99	nt
CCOc1ccc(S(=O)(=O)N2CCN(c3ccccc3F)CC2)cc1-c1nc(C)no1	nt	nt	109	-12
COc1ccc(C2C=C(c3ccc(Cl)cc3)Nc3nc(-c4ccc(Cl)cc4)nn32)cc1 (stereo not given)	80	60	-8.2*!	6&-21
CCn1c(SCC(=O)Nc2c(Cl)cc(S(N)(=O)=O)cc2Cl)nc2ccccc21	100	90	nt	-19
COc1ccc(NC(=O)c2ccc(CNc3c(N4CCCCC4)c(=O)c3=O)cc2)cc1OC	nt	nt	98	-35
N#CC(C(=O)CN1CCOCC1)c1ccccc1 (stereo not given)	100	98	108	-19
O=C(O)c1ccc2ccccc2n1	109	85	103	-33&-13
COc1cccc(NC(=S)N(CCC(C)C)C2CCN(C(C)=O)CC2)c1	104	88	103	-22
c1cnc(Sc2nnc3ccccn23)nc1	83	91	nt	-26
O=C(Cn1cnc2sc3c(c2c1=O)CCCC3)NCC(=O)N1CCN(Cc2ccccc2)CC1	nt	nt	105	-24
COc1ccc(S(=O)(=O)N2CCN=C2N2CCN(c3ccccc3Cl)CC2)cc1	nt	nt	106	-12
O=S(=O)(Nc1cc(Cl)ccc1N1CCCCC1)c1cccc2nsnc12	95	94	nt	-19
CCC(=O)OC1=C2C(=Nc3c(c(=O)n(C)c(=O)n3C)C2c2ccccc2)c2ccccc21 (stereo not given)	87	88	103	9
Cc1ccc2nc(SCCCC#N)[nH]c2c1	99	89	nt	-24
Cc1c2cnn(-c3ccccc3)c(=O)c2c(C)n1CCCC(=O)N1CCCCC1	89	86	104	nt
COc1ccc(Cl)cc1S(=O)(=O)NCc1cc(C)n(-c2ccc(F)cc2)c1C	nt	nt	112	-13
CCN1CCN(C(=O)c2ccc(S(=O)(=O)c3ccc(C)c(C)c3)nc2)CC1	nt	nt	105	-7
COC(=O)c1c[nH]c2ccccc12	110	103	103	-9
Cc1ccnc(NS(=O)(=O)c2ccc3c(c2)CCO3)c1	110	95	96	-7
COCC(=O)Nc1ccccc1C(=O)N1CCN(c2ccccc2)CC1	105	103	106	-6
NS(=O)(=O)c1ccc(CCNC(=O)c2ccc3nc(Cc4ccccc4)oc3c2)cc1	82	82	102	nt
CC(C)N1C(=O)C(O)(CC(=O)c2ccccc2)c2ccccc21 (stereo not given)	85	81	100	-21

# Remaining list, next part:
SMILES	Sa growth inh	Sa growth inh second temp	GIV Gai3 FP	HCMV UL50-53 inh
Cc1ccc(-n2ncc(C(=O)NCCCN3CCCCC3)c2C2CCN(C(=O)OC(C)(C)C)CC2)cc1	87	95	106	nt
Cc1ccc(NC(=O)CSc2nc3ncccc3[nH]2)c(C)c1	nt	nt	102	-3
Cc1cccc(NC(=O)c2sc3nc4n(c(=O)c3c2C)N=C(c2ccc(F)cc2)CS4)c1C	86	92	102	nt
O=C(Cc1cccc(C(F)(F)F)c1)NNc1c(F)c(F)cc(F)c1F	85	92	nt	-35
Cc1cn(C)c(CC(=O)NCc2ccc(Cl)cc2)c1C(=O)O	115	93	99	nt
CCCCCn1c(=O)c2c(nc3n2CCN3c2ccc(Br)cc2)n(C)c1=O	106	94	103	nt
CCCc1nc2nc(C)c(CC(=O)NC(C)C)c(C)n2n1	nt	nt	98	-10
CN(C)c1c2c(c(C#N)c3nc4ccccc4n13)CCC2	91	89	105	nt
Cc1ccc(N(C)C(=O)CC(C)S(=O)(=O)c2ccc3c(c2)NC(=O)CO3)cc1 (stereo not given)	69	82	111	nt
Cc1ccc(N(Cc2ccc(C(=O)NCc3ccco3)cc2)S(C)(=O)=O)cc1C	98	110	97	-10
O=C(Nc1ccccc1)N1CCN(c2ncccn2)CC1	90	92	103	8
CCOc1ccc(-c2nonc2NC(=O)COc2ccc(C(C)C)cc2)cc1C	nt	nt	105	-12
COc1cc(Br)c(CSc2n[nH]c(=O)n2C2CC2)cc1OC	92	95	nt	-2
O=C(COn1nnc2ccccc21)N1CCc2ccccc2C1	93	99	nt	19
c1ccc2[nH]c(NN=C3CCCC3)nc2c1	60	20	nt	-9
COc1cc2[nH]c3c(=O)n(Cc4ccc(Cl)cc4)cnc3c2cc1OC	86	84	100	nt
O=C(NCCc1ccc(Cl)cc1)c1ccc(CS(=O)Cc2cccc(Cl)c2)o1 (stereo not given)	7.4*	40*	105	nt
CN(C)c1ccc(/C=C2\CSC(=S)NC2=O)cc1	62	72	nt	-59
COC(=O)c1ccc(CSc2nc3ccc(S(N)(=O)=O)cc3[nH]2)cc1	82	79	nt	-5
Cc1ccccc1Nc1nc(N)nc(COC(=O)CCc2nc3ccccc3c(=O)[nH]2)n1	91	75	nt	-4
CC(=O)N1N=C(c2ccncc2)OC1(C)C	87	94	103	-6
CCc1ccc(NC(=O)N(CCN(C)C)C(C)c2cccnc2)cc1 (stereo not given)	87	81	97	nt
O=C1C(=O)N(C2CCN(C(=O)c3ccccc3F)CC2)CCN1Cc1ccccc1	nt	nt	104	-12
O=C(O)C1Cc2c([nH]c3ccccc23)C(c2ccccc2[N+](=O)[O-])N1 (stereo not given)	nt	nt	104	-49
CC1(C(=O)NC2CCCC2)Cn2cnc(C(=O)NCCC3=CCCCC3)c2C(=O)N1C1CC1 (stereo not given)	nt	nt	112	-12
COc1ccc(N2CCN(C(=O)c3cc(C)nc4c(-c5ccccc5)cccc34)CC2)cc1	nt	nt	103	-23
COC(=O)c1sc2cccc(F)c2c1S(=O)(=O)NCc1ccccc1Cl	90	76	104	nt
CCOc1ccc(NS(=O)(=O)c2ccc3c(c2)CCN3C(C)=O)cc1	92	101	109	5
O=C(CCSCc1ccccc1Cl)NCc1ccco1	113	91	100	-8
CCC(=O)N1N=C(c2c(-c3ccccc3)c3cc(Br)ccc3[nH]c2=O)CC1c1ccc(OC)cc1 (stereo not given)	nt	nt	99	-13
CCOC(=O)c1nn(-c2ccccc2)c(C(=O)OCC)c1N(C(=O)CC)C(=O)CC	105	95	99	-4
CCCn1c(C)ccc(-c2noc(CCCC(=O)Nc3ccc(F)cc3)n2)c1=O	nt	nt	108	-27
CC(C)c1ccc(Nc2c(-c3ccccn3)nc3ccccn23)cc1	89	90	99	-21
Cn1c(N)c(C(=O)CSc2nc3sc4c(c3c(=O)n2Cc2ccco2)CCCC4)c(=O)[nH]c1=O	100	90	nt	14
COC(=O)c1cc(S(=O)(=O)NCc2ccccc2)cn1C	95	88	103	nt
CCC(=O)Nc1ccc2c(c1)C(=O)NC2=O	85	85	104	-67
CC1CC(C)CN(CCCNC(=O)c2ccc3c(SCC(=O)O)c4c(nc3c2)CCC4)C1 (stereo not given)	103	92	102	nt
CCOCCCNC(=O)C(c1ccccc1)N(Cc1ccc2c(c1)OCO2)C(=O)c1ccc(NC(C)=O)cc1 (stereo not given)	94	83	104	-8
Cc1onc(-c2ccccc2Cl)c1C(=O)NC(c1ccccc1)c1nnc(-c2ccccc2)o1 (stereo not given)	nt	nt	101	-20
COC(=O)c1cnc[nH]c1=O	nt	nt	96	18
Cc1cc(C)c(NC(=O)Cn2c(=O)n(-c3ccc(CC(=O)NCC4CCCO4)cc3)c(=O)c3ccccc32)c(C)c1 (stereo not given)	107	87	103	-27
CCOc1ccc(NC(=O)Cn2c(=O)nc(-c3ccccc3)c3ccccc32)cc1	96	83	101&109	-24
Cc1cc(C)cc(NC(=O)c2sc3nc4n(c(=O)c3c2C)N=C(c2ccccc2)CS4)c1	123	90	105	nt
COc1ccc(Cc2nnc(Nc3ccc(C)cc3)o2)cc1OC	106	106	104	-1
COc1ccc(NC(=O)c2ccc3c(-c4ccccc4)onc3c2)cc1	98	93	98	-23
CCOC(=O)c1sc(NC(=O)c2cc(-c3ccc(F)cc3)on2)c(C(=O)OCC)c1C	98	96	105	2
CCN(CC(=O)Nc1cccc(OC)c1)C(=O)C1CCN(C(=O)Nc2ccccc2)CC1	82	80	nt	-27
CC1CC(C)(C)NC(=S)N1CC(=O)N(C)Cc1ccccc1 (stereo not given)	105	87	101	nt
CCOc1ccc(C(=O)Nc2ccc3c(c2)OCCO3)cc1Br	104	86	104	-56
CCCNC(=O)Nc1ccc2snnc2c1	98	80	110	25

# Next part
SMILES	Sa growth inh	Sa growth inh second temp	GIV Gai3 FP	HCMV UL50-53 inh
N#Cc1ccc(COC(=O)C2CCCCN2S(=O)(=O)c2cccc3nsnc23)cc1 (stereo not given)	89	91	nt	-57
Fc1ccc(-c2cn3ccsc3n2)cc1	83	105	108	-3
COc1ccc(CCNC(=O)C(C(C)C)N2Cc3ccccc3C2=O)c(OC)c1OC (stereo not given)	96	85	106	-28
Cc1ccc(OCCCn2c(CO)nc3ccccc32)cc1	nt	nt	105	-22
COc1ccc(CCNC(=O)c2sc3nc4n(c(=O)c3c2C)CCCC4)cc1OC	110	96	99	-17
FC(F)(F)c1cc(Nc2ccccc2)nc(-c2ccccn2)n1	nt	nt	106	-12
Cc1ccc(-c2nc(Nc3ccc(C)c(Cl)c3)sc2CC(=O)O)cc1	37	9	100	nt
COC(=O)c1c(-c2ccc(Cl)cc2)noc1N1CCN(c2ccc(C)cc2C)CC1	103	82	107	nt
CCOC(=O)C1CCN(C(=O)Cn2ccn3nc(-c4ccc5c(c4)OCO5)cc3c2=O)CC1	nt	nt	104	0
O=C(COc1ccccc1Cl)Nc1nnc(S(=O)(=O)N2CCCC2)s1	97	89	106	0
CCOc1ccc(N2CC(c3nc4ccccc4n3CCOc3ccccc3OC)CC2=O)cc1 (stereo not given)	96	82	103	-35

# From PubChem BioAssay
